PINK1 modulator: modulators of PINK1 expression | AID 624263 | Potency, µM (top dose mostly 76.6 µM), for the others: top-dose activation (PINK1 increase), actives largely listed as activators | PINK1 immunofluorescence, high-content cytometry, 24 h | 410,000 compounds, 0.2% hits; active = well fitted activation curve with a large enough effect; inconclusive = small, poorly fitted or top-dose-only effect; inactive = flat fitted curve, though single readings scatter; cell line not stated here;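 also: potency is read from the fitted curve at half-maximal effect; % of control where 0% means no effect; nearly all actives have a fitted effect of over 65% in size; a mitochondrial uncoupler was the plate control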
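Cells are seeded, rested 12 hours, then given compound at five concentrations or DMSO for 24 hours. After fixation, blocking and antibody staining, PINK1 amount and mitochondrial localization are scored; CCCP serves as control.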
Menin-MLL FL inh: inhibitors of human menin-MLL interaction, wild-type MLL peptide. Fluorescence polarization, fluorescein-MLL peptide displacement from menin. FP activity change, % at 61.4 µM. 290,000 tested, under 10 active; inconclusive = falling polarisation curve, or a change in total fluorescence; inactive = total fluorescence flat and polarisation flat or rising; no compound was filed as active; the % refers to the polarisation; negative = inhibition;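 also: % of control where 0% means no effect; inhibitors lower the polarisation; unlabelled MLL peptide was the positive control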
TRPV1 PAM: human TRPV1 potentiation | potentiation, % at 8.33 µM | TRPV1-expressing cells, Fluo-8 calcium influx, capsaicin EC20 potentiation; host cell line not named in the record; control for the full effect not named in the record | AID 540277 | Q8NER1 | 320,000 compounds, 0.02% hits; active means potentiation above 80%; inconclusive means 30% to 80%; inactive means below 30%; also: 0% is about no effect
Target sequence (Q8NER1 whole entry, looked up): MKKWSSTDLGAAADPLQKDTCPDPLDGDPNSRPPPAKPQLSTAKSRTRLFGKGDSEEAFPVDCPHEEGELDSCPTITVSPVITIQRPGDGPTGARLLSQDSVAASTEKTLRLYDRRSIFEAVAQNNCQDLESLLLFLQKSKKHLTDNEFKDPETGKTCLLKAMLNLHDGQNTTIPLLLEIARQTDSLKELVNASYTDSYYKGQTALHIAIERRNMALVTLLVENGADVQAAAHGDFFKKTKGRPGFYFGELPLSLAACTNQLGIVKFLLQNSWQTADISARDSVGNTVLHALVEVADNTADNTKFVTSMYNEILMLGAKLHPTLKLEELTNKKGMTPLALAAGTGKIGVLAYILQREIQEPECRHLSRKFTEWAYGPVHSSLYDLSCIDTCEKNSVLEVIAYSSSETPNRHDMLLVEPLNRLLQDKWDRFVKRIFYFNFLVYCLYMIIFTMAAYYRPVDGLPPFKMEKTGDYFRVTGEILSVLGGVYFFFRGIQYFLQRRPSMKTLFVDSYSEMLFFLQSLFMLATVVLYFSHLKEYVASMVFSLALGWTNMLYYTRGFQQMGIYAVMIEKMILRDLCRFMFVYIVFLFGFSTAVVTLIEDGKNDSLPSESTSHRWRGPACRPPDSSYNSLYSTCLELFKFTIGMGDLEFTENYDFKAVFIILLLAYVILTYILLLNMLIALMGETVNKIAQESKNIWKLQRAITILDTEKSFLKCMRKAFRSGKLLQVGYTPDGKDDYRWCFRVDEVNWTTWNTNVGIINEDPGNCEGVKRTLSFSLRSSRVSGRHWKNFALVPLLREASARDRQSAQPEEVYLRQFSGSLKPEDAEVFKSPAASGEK
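TRPV1-expressing cells were cultured overnight at 35.5C and loaded with Fluo-8 calcium dye for 40 to 90 min at room temperature. After a 10 s baseline, compound was added and calcium influx was read kinetically for 3 min (ex 480/em 520 nm).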
TRPML1 ag: activates the human TRPML1 channel. Q9GZU1. TRPML1-expressing cells, Ca2+ dye fluorescence, FDSS; host cell line not named in the record; reference of the full effect not given here. activation, % (no concentration beside the values). 410,000 compounds, 0.12% hits. AID 624414; in the data active = activation above about 50%; inconclusive = about 30% to 50%; inactive = below about 30%; also: 0% is about no effect; the text of the record puts the active cut at 80%
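TRPML1-DL cells, Tet-induced overnight (~16 h, 37 degrees C), loaded 45-90 min at room temperature with Ca8 no-wash calcium dye plus quencher. FDSS fluorescence: 10 s baseline, compound pin-transfer, 110 s agonist read, then EC80 54-4 (4uM final) and 110 s antagonist read.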
ClpP mod: qHTS Assay for Activators of ClpP; purified B. subtilis ClpP, FRET peptide cleavage, 20 min; Potency, µM (doses to about 57.5 µM), for inactives: at the top dose activity change, negative = active; 340,000 compounds, 1.9% hits; active = well fitted falling curve with a large enough effect; inconclusive = small, poorly fitted or top-dose-only effect; inactive = no such curve, though single readings can be large or run the other way; also: potency is read from the fitted curve at half-maximal effect; the source files actives as falling curves though it sought activators and does not explain the sign; nearly all actives have a fitted effect of over 65% in size; many hits overshoot -100%
Target sequence (P80244 whole entry, looked up): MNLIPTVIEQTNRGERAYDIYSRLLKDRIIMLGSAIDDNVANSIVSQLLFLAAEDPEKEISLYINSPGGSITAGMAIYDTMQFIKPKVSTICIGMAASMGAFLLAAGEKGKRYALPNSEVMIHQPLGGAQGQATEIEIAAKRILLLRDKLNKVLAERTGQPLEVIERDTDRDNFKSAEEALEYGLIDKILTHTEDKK
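Purified B. subtilis ClpP, 10 microg/mL final in Tris/HCl pH8 with KCl, BSA, glycerol and Tween-20, cleaved an Abz/nitrotyrosine-quenched decapeptide. Fluorescence (ex 320, em 430) was read at 0 and 20 min at room temperature. Delta was normalized to 5.8 microM ADEP and DMSO/no-enzyme controls.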
TRPML1 inh: human mucolipin-1 channel inhibition; Q9GZU1; TRPML1-inducible cells, Ca2+ dye fluorescence, FDSS; stronger effect = lower value; inhibition of EC80 agonist-evoked calcium signal; activity change, negative = inhibition, % (concentration not given with the values); 390,000 compounds, 0.02% hits; in the data active means activity change below about -50%; inconclusive means about -30% to -50%; inactive means above about -30%;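 also: stimulus is agonist 54-4 at its EC80 concentration; % is scaled to controls: 0 for no effect and ±100 for the full control effect; the text of the record puts the active cut at -80%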
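TRPML1-DL cells, Tet-induced overnight (~16 h, 37 °C) at 1,500 cells/well, were loaded with Ca8 no-wash dye plus quencher for 45-90 min at room temperature. Compounds were pinned during FDSS kinetic reading; agonist 54-4 at EC80 (4 uM final) then added.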
Sfp inh: blocks B. subtilis Sfp PPTase activity; Q9F4F7; Biochemical Sfp PPTase activity, qHTS; Potency, µM, without a hit: max response, negative = inhibition, hits mostly inhibitors; 310,000 compounds, 3.5% hits; AID 1490; active = well fitted inhibition curve with a large enough effect; inconclusive = small, poorly fitted or top-dose-only effect, or another doubt; inactive = no such curve, though single readings can be large or run the other way;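 also: the enzyme is Sfp with the accession as filed and its product quenches rhodamine fluorescence; potency is read from the fitted curve at half-maximal effect; 0% = enzyme reaction without inhibitor and -100% = no enzyme wells; top concentration of the series not given in the record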
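Buffer: 50 mM Hepes-Na pH 7.6, 10 mM MgCl2, 0.01% Nonidet P-40, 0.01% BSA. Enzyme 15 nM, pre-exposed to compound 15 min; substrates then added and fluorescence change tracked over 30 min.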
* = called active by the depositor; ? = inconclusive; . = not tested or not shown; & = joins results of further samples; [ ] = remark or other dose.

Below each SMILES – Menin-MLL FL inh, TRPML1 inh, ClpP mod, Sfp inh, TRPML1 ag, TRPV1 PAM, PINK1 modulator
> COc1ccc(OC)c(C(=O)c2coc3ccc(OCC(=O)O)cc23)c1
→ 1.7, 0, ?, 16%, -0.9, 1, 3.2%
> COc1ccc2c(c1)cc(C(=O)N[C@@H](Cc1ccccc1)C(=O)O)n2C
→ -8.1, 31, 3.8%, 25%, 1.2, ?, -0.1%
> CC(C)N(Cc1ccccc1)C(=S)NCCN1CCOCC1
→ -2.0, -17, ., ?, 1.0, -16, -1.9%
> O=C(CCNC(=O)c1ccccc1Cl)NCc1ccco1
→ ., -22, 0.4%, ., -0.3, 10, -0.8%
> Cc1cccc(CC(=O)Nc2ccc3nc(N4CCC(C)CC4)cc(C)c3c2)c1
→ ., 29, 4.0%, ., 1.8, ., 2.9%
> Cc1ccccc1OCCNc1cc(N2CC(C)NC(C)C2)ccc1[N+](=O)[O-] (stereo not given)
→ 0.7, 1, 0.0%, -16%, 0.5, -8, -1.3%
> CC1CN(Cc2ccccn2)CCC1=O (stereo not given)
→ -3.2, 13, -1.7%, 14%, 0.5, -2, -0.6%
> CCCCn1c(-c2ccoc2C)n[nH]c1=S
→ 1.0, 4, 1.5%, -4%, 1.0, 25, -2.1%
> O=C(Nc1cccc(C(F)(F)F)c1)c1ccc(-n2cncn2)nc1
→ 4.2, -5, ., 17%, -0.9, -13, 1.5%
> COc1cc2c(cc1OC)CN(C(=O)CCNC(=O)c1ccc(Br)cc1)CC2
→ ., 9, -1.8%, ., 0.8, -2, 0.3%

Structural class, the compounds so far containing a furan ring, fused or not.
Below each SMILES – Menin-MLL FL inh, TRPML1 inh, ClpP mod, Sfp inh, TRPML1 ag, TRPV1 PAM, PINK1 modulator
> COc1ccc(OC)c(C(=O)c2coc3ccc(OCC(=O)O)cc23)c1
→ 1.7, 0, ?, 16%, -0.9, 1, 3.2%
> O=C(CCNC(=O)c1ccccc1Cl)NCc1ccco1
→ ., -22, 0.4%, ., -0.3, 10, -0.8%
> CCCCn1c(-c2ccoc2C)n[nH]c1=S
→ 1.0, 4, 1.5%, -4%, 1.0, 25, -2.1%

A draw from above in order of count of non-hydrogen atoms, low to high.
Below each SMILES – Menin-MLL FL inh, TRPML1 inh, ClpP mod, Sfp inh, TRPML1 ag, TRPV1 PAM, PINK1 modulator
> CC1CN(Cc2ccccn2)CCC1=O (stereo not given)
→ -3.2, 13, -1.7%, 14%, 0.5, -2, -0.6%
> CC(C)N(Cc1ccccc1)C(=S)NCCN1CCOCC1
→ -2.0, -17, ., ?, 1.0, -16, -1.9%
> COc1ccc(OC)c(C(=O)c2coc3ccc(OCC(=O)O)cc23)c1
→ 1.7, 0, ?, 16%, -0.9, 1, 3.2%
> Cc1cccc(CC(=O)Nc2ccc3nc(N4CCC(C)CC4)cc(C)c3c2)c1
→ ., 29, 4.0%, ., 1.8, ., 2.9%

Continued:
Below each SMILES – Menin-MLL FL inh, TRPML1 inh, ClpP mod, Sfp inh, TRPML1 ag, TRPV1 PAM, PINK1 modulator
> CCc1cccc(NC(=S)N(CCOC)C2CCN(C(C)=O)CC2)c1
→ 4.9, -10, ., 8%, 0.8, 10, 0.1%
> CC(=O)Nc1cccc(-c2ccnc3c2CC(C(=O)NCc2ccc(N(C)C)cc2)O3)c1 (stereo not given)
→ ., -27, -6.3%, ., 0.2, ., 5.8%
> O=C(N[C@@H](Cc1ccccc1)C(=O)Nc1ccc(F)cc1)C1CCNCC1
→ ., 2, 2.0%, 1%, -0.6, 27, -0.2%
> CC12C=CC(=O)C=C1C(F)CC1C3CCC(O)(C(=O)CO)C3(C)CC(O)C12F (stereo not given)
→ ., -7, -1.5%, ., 0.2, ., 2.1%
> COc1ccc(OCc2nnc(SCC(N)=O)n2-c2ccccc2OC)cc1
→ 0.4, -2, -0.4%, -16%, -0.5, 1, -4.2%[38.3 µM]
> CCOC(=O)N1CCN(C(=O)c2sc3nc(-c4ccc(F)cc4)cn3c2C)CC1
→ 2.7, -12, -1.5%, 1%, -0.1, 14, 3.9%
> CC1=C(C#N)C(c2cccnc2)C2=C(CC(c3ccc(Cl)cc3)CC2=O)N1 (stereo not given)
→ -0.7, -4, 28µM*, 11%, -0.5, -2, 0.1%[38.3 µM]
> C=CCc1cc(C(=O)N2CCCCC2)ccc1O
→ 1.6, -15, -5.6%, 19%, -0.3, -2, -1.7%[38.3 µM]
> CCOCCCNCc1ccc(OCc2ccc(F)cc2)c(OC)c1
→ -4.9, 2, ., 9%, -0.3, 3, 0.7%
> COc1ccc(C(=O)ON=C2CCN(C)CC2)cc1
→ -3.5, -8, ?, -1%, -0.4, 18, -0.4%

Rewritten bar-delimited: entries from further up
SMILES | Menin-MLL FL inh | TRPML1 inh | ClpP mod | Sfp inh | TRPML1 ag | TRPV1 PAM | PINK1 modulator
COc1ccc(C(=O)ON=C2CCN(C)CC2)cc1 | -3.5 | -8 | ? | -1% | -0.4 | 18 | -0.4%
CCCCn1c(-c2ccoc2C)n[nH]c1=S | 1.0 | 4 | 1.5% | -4% | 1.0 | 25 | -2.1%

Further records follow:
Below each SMILES – Menin-MLL FL inh, TRPML1 inh, ClpP mod, Sfp inh, TRPML1 ag, TRPV1 PAM, PINK1 modulator
> Cc1cccc(NS(=O)(=O)c2ccc(C(=O)N3CCCCCC3)cc2)c1C
→ ., 16, ., ., 2.9, -10, 0.1%
> C[C@H](NC(=O)CC[C@H]1O[C@@H](n2ccc(=O)[nH]c2=O)[C@H](O)[C@@H]1O)c1cccc2ccccc12
→ ., -16, -1.1%, ., -0.2, ., 3.6%
> Clc1ccc(-c2csc(-c3nc(-c4ccc(Br)s4)cs3)n2)cc1
→ ., 16, 2.2%, ., -0.3, ., 2.2%
> COc1ccc2[nH]c3c(c2c1)CCN1C(=O)C(CC(=O)NCCCn2ccnc2)C[C@H](C(=O)N2CCOCC2)[C@@]31CCC1CCCC1 (stereo not given in full)
→ ., -16, 0.2%, ., -0.7, ., 0.8%
> CN1CCN(C(=O)/C(=C/c2ccccc2F)NC(=O)c2ccccc2)CC1
→ -0.5, 14, ., 15%, 3.6, 11, -2.3%
> NC(=O)COC(=O)c1ccc(C(=O)C(=O)c2ccccc2)cc1
→ 5.3, 2, ., -15%, 3.0, -9, -0.7%
> O=C(CCNC(=O)c1ccccc1Cl)Nc1ccc(Cl)c(C(F)(F)F)c1
→ 4.0, -27, 0.8%, -18%, 3.4, -1, 3.5%
> COc1ccc(C)cc1NS(=O)(=O)c1cc2c3c(c1)CC(=O)N3CCC2
→ ., 5, 0.8%, ., 1.8, ., 0.5%
> Cc1ccc(CC(=O)Nc2ccc(S(=O)(=O)N3CCOCC3)cc2)cc1C
→ ., -1, -4.1%, ., 0.3, -21, 1.6%
> Clc1ccc(-c2nnc(-c3ccccc3)nc2-c2c[nH]c3ccccc23)cc1
→ ., 8, ., 21%, -0.2, -9, 15%

Continued.
Below each SMILES – Menin-MLL FL inh, TRPML1 inh, ClpP mod, Sfp inh, TRPML1 ag, TRPV1 PAM, PINK1 modulator
> CC(=O)N1C(C)(C)CC(=NOC(=O)c2ccccc2)CC1(C)C
→ -1.2, -9, -0.9%, 15%, -0.1, 5, 0.6%
> CCOc1ccc(NN=C(C(=O)OC)C(=O)OC)c([N+](=O)[O-])c1
→ -0.9, -16, ., 10%, 1.8, -3, 1.1%
> CCc1ccc(NC(=O)CSc2ccc(-c3ccccn3)nn2)cc1
→ ., 6&-2, -4.5%&-0.7%, 7%, 2.1&1.6, -10, 3.6%&0.4%
> CC(=O)c1ccc(OCC(O)CN2CCN(CCO)CC2)cc1 (stereo not given)
→ -0.2, -12, 0.4%, 19%, 0.1, 9, 0.5%
> CCc1n[nH]c(=S)n1/N=C/c1ccc(-c2ccc(Br)cc2)o1
→ ., 20, 0.8%, ., 2.2, ., 5.5%
> CCN1CCN(C(=O)C(C)Oc2ccc(S(=O)(=O)N3CCCC3)cc2C(N)=O)CC1 (stereo not given)
→ ., -1, -3.5%, ., 0.3, -2, -0.9%
> CCCOc1ccc(NC(=O)OC2CCN(C)CC2)cc1
→ 2.4, 4, -0.5%, 1%, 0.2, -3, 0.3%
> O=[N+]([O-])c1cc(Cl)cc(/C=N\Nc2ccccn2)c1O
→ -0.7, 8, 0.9%, 11%, 0.7, 18, 0.9%
> CCn1cc(C(=O)O)c(=O)c2cc(F)c(N3CCN(C(=S)Nc4ccccc4OC)CC3)cc21
→ 3.4, 1, -23%, 18%, -0.5, -9, 1.2%
> Cc1cc(C(=O)Nc2ccc(Cl)cc2)c2ccccc2n1
→ -3.4, 42, ., 6%, -0.4, 5, ?

Going on with the list:
Below each SMILES – Menin-MLL FL inh, TRPML1 inh, ClpP mod, Sfp inh, TRPML1 ag, TRPV1 PAM, PINK1 modulator
> CCC(NC(=O)Nc1nccs1)(C(F)(F)F)C(F)(F)F
→ -2.5, 0, -2.0%, -2%, -1.0, -10, 0.6%
> CCOc1ccc(NC(=O)CN(c2ccc(OC)c(OC)c2)S(=O)(=O)c2ccc(C)cc2)cc1
→ -5.3, 2, 0.1%, 15%, 1.6, 2, 2.3%
> Cc1ccsc1C(=O)N1CCC1(C)C(=O)NCc1cccnc1 (stereo not given)
→ ., ., -0.4%, ., -0.5, ., -0.1%
> C[C@H]1CN([C@@H](C)CO)C(=O)CCCn2cc(nn2)CO[C@@H]1CN(C)S(=O)(=O)c1ccc2ccccc2c1
→ ., 12, 0.8%, ., -0.4, ., 1.2%
> CC1(NC(=O)NCc2ccco2)CCS(=O)(=O)C1 (stereo not given)
→ ., -21, 0.1%, -1%, -0.1, -6, 0.9%
> COc1ccc(OC)c(C(=O)NC(CC(N)=O)c2ccc(N3CCN(c4ccc(F)cc4)CC3)c([N+](=O)[O-])c2)c1 (stereo not given)
→ -4.0, -10, ?, 3%, 1.6, -13, 0.0%
> O=C(NCc1ccccc1)c1onc(CSc2ccc(F)cc2)c1C(=O)NCCCN1CCOCC1
→ 0.9, 9, 0.9%, 9%, -0.7, 21, -1.2%

Screening results from PubChem BioAssay.
